Screening data: PubChem BioAssay, Center for Chemical Genomics, University of Michigan
CDC25B-CDK2 inh = primary biochemical HTRF screen for blockers of M-phase inducer phosphatase 2 binding to CDK2/cyclin A; HTRF CDC25B-CDK2/CyclinA binding, anti-His/anti-Flag; active compounds read high; z-score (no concentration beside the values); 0.72% of 94,000 active;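 also: score is relative to mean and SD of negative controls; strong numbers were not always called active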
HIV TAR-Tat = TAR RNA-Tat peptide displacers, HIV-1, primary screen, biochemical, FRET, FAM/TAMRA-labeled Tat; HIV-1 TAR RNA, Tat peptide displacement FRET; active compounds read high; AID 1259389, 2018; 0.6% of 100,000 active; z-score (no concentration beside the values);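 also: score is relative to mean and SD of negative controls; some compounds called inactive have numbers as strong as hits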
An asterisk follows results filed as active; nt = no result given.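 The calls were made as follows: active = z-score from 3 up in half or more of its runs; inactive = the rest.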 An unsorted share of the library; about 0.89% have a hit in one of these screens.

Second line of a record – CDC25B-CDK2 inh	HIV TAR-Tat
> Cc1nc2c(c(C)nn2C(C)(C)C)c(C)c1CCC(=O)NC(C)(C)C
    -0.66	-0.2
> COc1ccc(C2CC(=O)C3=C(C2)NC(=O)CC3c2ccc3c(c2)OCO3)cc1 (stereo not drawn)
    -1	-0.27
> CC1CCN(c2nn3c(=O)c(C(=O)N4CCN(Cc5ccc6c(c5)OCO6)CC4)cnc3s2)CC1
    nt	0.07
> Clc1ccc(CNc2nc3ccccc3c3nc(-c4cccnc4)nn23)cc1
    -0.55	-0.15
> Cc1nn(C(C)C(=O)N2CCCC2)c(=O)c2nn(-c3ccccc3)c(C)c12 (stereo not drawn)
    nt	-0.13
> Fc1ccccc1Cc1cn2cc(-c3ccc(Br)cc3)nc2s1
    -1.64	0.48
> O=C(NCCCN1CCCC1)Nc1ccc(F)cc1
    0.52	-0.49
> CSc1nc(NCCO)c(C#N)c(-c2ccc(C(C)(C)C)cc2)n1
    -1.23	0.94
> CC1=C(c2ccc(C(C)C)cc2)S(=O)(=O)NC1=O
    0.67	-0.77
> O=C(C1CCCN1c1nnc(N2CCCC2=O)s1)N1CCN(c2ccccc2)CC1 (stereo not drawn)
    -1.77	2.01
> CSC(=S)Nc1ccc(Br)cc1
    -1.33	nt
> COC(=O)c1ccc(OC)c(CN2N=NC3C(=O)N(c4ccc(OC)cc4)C(=O)C32)c1 (stereo not drawn)
    -1.35	-0.76
> Cc1nn2c(=O)cc(CSCC(=O)Nc3ccccc3)nc2s1
    nt	0.61
> COc1ccc(-c2noc(-c3nnn(-c4ccc(C)cc4)c3C)n2)cc1OC
    nt	1.84
> c1ccc(CCCNc2nn3nnnc3c3ccccc23)cc1
    -2.58	-0.25
> CSc1sc(C(=O)NC2CC2)c(-c2ccc(Cl)cc2)c1C#N
    -3.3	nt
> Cc1cccc(-c2ncc(S(=O)(=O)C(C)(C)C)c(N)n2)c1
    0.31	nt
> N/C(=N\OC(=O)C(Cl)Cl)c1cccc(-n2cccc2)c1
    -1.38	nt
> COc1ccc(-c2nnc3c4cc5c(cc4n(Cc4ccc(F)cc4)cc2-3)OCCO5)cc1
    -2.75	0.53
> COc1ccc(NS(=O)(=O)c2ccc3c(c2)C(C(C)C)C(=O)N3)cc1 (stereo not drawn)
    nt	0.53

New compounds follow.
Second line of a record – CDC25B-CDK2 inh	HIV TAR-Tat
> CCOC(=O)N1CCC(NC(=O)c2cc3c(C)nccc3[nH]c2=O)CC1
    nt	1.56
> O=C(CN1C(=O)CSc2cccn2-c2ccccc21)NCc1cccs1
    nt	0.72
> CCC(C(=O)NCCN(CC)CC)N1C(=O)CCn2nc(C)cc21 (stereo not drawn)
    nt	1.25
> Cc1nc(-c2cnccn2)sc1C(=O)Nc1ccc(N2CCOCC2)cc1
    -1.38	nt
> Cc1c(Cl)cccc1NC1OC(=O)c2ccccc21 (stereo not drawn)
    -0.13	-0.56
> Cc1ccc(S(=O)(=O)N2CC3C=CC2C3)cc1 (stereo not drawn)
    -2.5	nt
> Cc1ccc2nc(CN3CCN(S(=O)(=O)c4ccc5c(c4)CCCC5)CC3)oc2c1
    nt	0.82
> COc1cccc(CN=C2NS(=O)(=O)C(c3ccc(C(C)C)cc3)=C2C)c1
    -8.76	10.1
> CC(=O)N1c2ccc(S(=O)(=O)N(C)CC(=O)Nc3ncc(Br)s3)cc2CC1C (stereo not drawn)
    nt	1.32
> Cc1c(NC(=O)O/N=C(/N)c2ccccc2)sc2nc(-c3ccc(Cl)cc3)nn12
    -1.33	nt
> CN(CC(=O)NCC1COc2ccccc2O1)S(=O)(=O)c1ccc2c(c1)CCC(=O)N2 (stereo not drawn)
    -1.53	nt
> O=C1C(=O)c2ccccc2C(O)=C1C1CCC(c2ccc(Cl)cc2)CC1 (stereo not drawn)
    nt	1.4
> Cc1csc2ncc(C(=O)Nc3cccc(Cl)c3)c(=O)n12
    -1.77	nt
> Cn1nnnc1SCCCNCc1ccc(Br)cc1
    -0.77	0.42
> CCC(C)NC(=O)CN1C(=O)CSc2ncccc21 (stereo not drawn)
    -1.14	0.97
> O=C(CSc1nc(-c2ccc(Cl)cc2)nc2cc(=O)[nH]n12)Nc1ccc(F)cc1
    nt	-1.14
> Cc1coc(C)c1C(=O)CC1(O)C(=O)Nc2ccccc21 (stereo not drawn)
    -0.76	3.25
> Cc1cc(=O)nc2c3ccccc3n(C(C)C(=O)NCCCN3CCCC3=O)n12 (stereo not drawn)
    -1.43	1.55
> CCOc1ccc(NS(=O)(=O)c2cn(C)cn2)cc1
    nt	2.6
> CCCCC(=O)N(c1cc(C)cc(C)c1)C1C=CS(=O)(=O)C1 (stereo not drawn)
    -0.51	-0.12

Single entries from above:
In HIV TAR-Tat, CCOc1ccc(NS(=O)(=O)c2cn(C)cn2)cc1 is entered as 2.6
In CDC25B-CDK2 inh, Cc1cc(=O)nc2c3ccccc3n(C(C)C(=O)NCCCN3CCCC3=O)n12 (stereo not drawn) is entered as -1.43
In HIV TAR-Tat, Cc1ccc2nc(CN3CCN(S(=O)(=O)c4ccc5c(c4)CCCC5)CC3)oc2c1 is entered as 0.82
In HIV TAR-Tat, CCOC(=O)N1CCC(NC(=O)c2cc3c(C)nccc3[nH]c2=O)CC1 is entered as 1.56

(next part)
Second line of a record – CDC25B-CDK2 inh	HIV TAR-Tat
> Cc1cc(=O)n2[nH]c(C(=O)O)nc2n1
    -1.19	0.74
> COc1ccc(Cl)cc1S(=O)(=O)Nc1cc2c(cc1N1CCOCC1)n(C)c(=O)c(=O)n2C
    nt	0.55
> CC1=C(c2ccc(Cl)cc2)S(=O)(=O)N=C1Nc1ccc(F)cc1
    -3.52	0.28
> Fc1ccccc1Nc1ncnc2onc(-c3ccc(Cl)cc3)c12
    0.61	1.29
> Cc1ccccc1N1C(=O)Nc2cccc[n+]2[B-]1(c1ccccc1)c1ccccc1
    -1.97	nt
> CCCN=C1NS(=O)(=O)C(c2ccc(F)cc2)=C1C
    nt	-0.76
> Cc1cccc2c1N[C@H](c1ccc(C(=O)O)cc1)C1CC=CC21 (stereo partly drawn)
    6.75*	2.89
> CCOC(=O)C12C(=O)OC(C)(C)C1C2(CC)C(=O)c1ccc(Cl)cc1 (stereo not drawn)
    0.82	nt
> Cc1cc(C)n(-c2nc3ccccc3nc2N2CCN(S(=O)(=O)c3ccc(C)c(C)c3)CC2)n1
    -0.84	0.97
> C=CCSc1nc2c(c(=O)[nH]1)C(c1ccc(Cl)cc1)C(C(=O)OC(C)C)=C(C)N2 (stereo not drawn)
    0.77	0.2
> COc1ccc(OC)c(C2=NOC(C(=O)Nc3cc(Br)ccc3O)C2)c1 (stereo not drawn)
    -0.74	0.75
> CCOC(=O)C(C)NC(=O)Nc1ccc2nc(NS(C)(=O)=O)sc2c1 (stereo not drawn)
    nt	0.05
> COc1ccc(CNC(=O)Nc2c[nH]c(=O)[nH]c2=O)cc1
    nt	1.77
> Cc1nnc2c(N3CCCC3)nc3ccc(C(=O)c4ccccc4)cc3n12
    nt	0.71
> COc1ccc(S(=O)(=O)[C@H]2CS(=O)(=O)C[C@@H]2NCc2ccc3c(c2)OCO3)cc1
    -0.18	0.67
> O=C(c1cnn2cc(Br)cnc12)N1CCCC1c1cccs1 (stereo not drawn)
    0	1.69
> O=C(NCc1noc2ccccc12)N1CCCN(Cc2ccccc2Cl)C1
    nt	-1.04
> COc1cc(NS(=O)(=O)c2ccc3c(c2)NC(=O)C(C)CS3)cc(OC)c1 (stereo not drawn)
    nt	1.53
> Cc1ccc(NS(=O)(=O)c2ccc(-c3cnc(C4CC4)o3)cc2)c(C)c1
    nt	1.39
> O=C(Cn1c(SCc2ccccc2F)nc2ccncc21)NCC1CCCO1 (stereo not drawn)
    0.07	-0.37

Continued.
Second line of a record – CDC25B-CDK2 inh	HIV TAR-Tat
> CC(=O)N1N=C(COc2ccc(Cl)cc2)OC1c1cc2c(cc1Cl)OCO2 (stereo not drawn)
    nt	2.35
> O=S(=O)(NC1CCCCC1Nc1ccccc1)c1ccc(Cl)cc1 (stereo not drawn)
    1.06	0.63
> COc1ccc(Br)c(C(=O)Nc2c(F)cccc2F)c1
    -0.24	nt
> Cc1nnc2c(NCC3CCCO3)nc3ccccc3n12 (stereo not drawn)
    0.41	1.3
> CN1CCN(CCCN2C(=O)c3cc4sccc4n3CC2(C)C(=O)NC2CCCCC2)CC1 (stereo not drawn)
    -1.19	1.66
> O=C(Nc1ccc2c(c1)C(=O)OC2)c1ccno1
    -1.87	nt
> CCc1ccc(-n2c(C)nnc2SCc2nc(-c3ccc(C)cc3)no2)cc1
    1.93	2.18
> CCOC(=O)c1ccc2oc(=O)n(Cc3ccc(F)cc3)c2c1
    nt	0.56
> COc1ccc(C2C3C(=O)N(c4ccccc4)C(=O)C3ON2c2ccccc2)cc1 (stereo not drawn)
    -0.37	1.22
> COc1ccc2c(c1)c(=O)oc1cc3occ(-c4ccc(F)cc4)c3cc12
    -0.44	0.14
> O=C(NCCN1CCCc2ccccc21)c1noc2c1CCc1sccc1-2
    nt	0.35
> Cc1cc(CNC(=O)c2cc(C)n(C)n2)no1
    -1.95	nt
> Clc1ccc(CNc2c(-c3ccccn3)nc3ncccn23)cc1
    nt	-2.39
> c1ccc2c(c1)OCC(c1csc3ncnc(N4CCCC4)c13)O2 (stereo not drawn)
    1.24	0.21
> Cc1nc(C)c(CCNS(=O)(=O)c2ccc3c(c2)OCCO3)s1
    nt	-0.43
> O=C(Nc1ccc(OCc2cc(=O)n3ccsc3n2)cc1)C1CCCCC1
    -1.98	2.87
> CSc1scc(NC(=O)c2ccc(Cl)cc2)c1S(=O)(=O)C(C)C
    -0.02	nt
> O=c1[nH]c(=O)n(C2CCCO2)cc1F (stereo not drawn)
    1.18	-1.39
> CC1CCCC(NC(=O)c2nn(C)c3c2COc2ccccc2-3)C1C (stereo not drawn)
    -1.27	-0.04
> O=c1cc(C(F)(F)F)[nH]n1-c1ccccc1
    -1.33	nt

The listing continues.
Second line of a record – CDC25B-CDK2 inh	HIV TAR-Tat
> COC(=O)c1ccc(C2Nn3c(C)nnc3SC2C(=O)Nc2cc(C)ccc2C)cc1 (stereo not drawn)
    -2.03	1.29
> CCN(CC)S(=O)(=O)c1ccc2c(c1)N(CC(=O)O)C(=O)CO2
    nt	1.16
> CN1C(=O)C2(c3cc(Br)ccc31)N1CC3(C)CN2CC(C)(C1)C3=O (stereo not drawn)
    -0.68	nt
> COc1ccc(C2N(S(=O)(=O)c3ccccc3)CCN2S(=O)(=O)c2ccccc2)cc1
    -0.89	-1.08
> COc1cc2c3cc1OCc1c(O)c(OC)cc4c1[C@H](Cc1ccc(cc1)Oc1cc(ccc1O)C[C@H]3N(C)CC2)N(C)CC4
    nt	1.12
> O=C(Nc1nc(-c2ccc(Br)o2)ns1)c1ccccc1
    -1.86	1.19
> C/C(=C\C(=O)Nc1ccc(F)cc1)Nc1ccc(F)cc1
    -2.78	nt
> O=C1CC(c2cc(F)cc(F)c2)c2c(nc(SCc3ccc(F)cc3)[nH]c2=O)N1 (stereo not drawn)
    -2.66	2.15
> CCN(CC)S(=O)(=O)c1ccc2c(c1)N(CC(=O)N1CCCCC1)C(=O)CS2
    0.09	1.87
> CCN1CCCC1CNC(=O)Cn1nc(C)c2sc3ccccc3c2c1=O (stereo not drawn)
    -0.4	-0.06
> O=C(/C=C/c1ccc2c(c1)OCO2)N1CCC(CN2C(=O)c3cccc4cccc(c34)C2=O)CC1
    -6.73	nt
> O=C(O)c1cccc2c1NC(c1ccc3c(c1)OCO3)C1C3CCC(C3)C21 (stereo not drawn)
    -1.51	-0.45
> Cn1cccc1Cc1nnc(SCC(=O)N2CCc3ccccc32)n1C
    -1.06	0.33
> O=C(Nc1ccccc1)NC1CCN(Cc2c(F)cccc2Cl)CC1
    -1.23	nt
> COC(=O)c1c(Sc2ccccc2)c2ccccc2n1C
    -1.89	-1.15
> O=C(CC1SCCNC1=O)Nc1ccccc1Cl (stereo not drawn)
    -0.44	1.35
> CCOC(=O)N1CCN(c2c(N3CCN(C)CC3)c(=O)c2=O)CC1
    0.34	1.18
> COc1c(C(=O)Nc2nc(-c3ccc(F)c(F)c3)cs2)csc1Cl
    -2.56	nt
> O=C(CSc1nc2ccccc2[nH]1)Nc1nc2ccccc2s1
    -0.31	-1.1
> COc1ccc(CN2CCC(N3CCCCCC3)CC2)cc1OC
    -1.23	nt

An excerpt of these results, as labelled records.
C=CCSc1nc2c(c(=O)[nH]1)C(c1ccc(Cl)cc1)C(C(=O)OC(C)C)=C(C)N2 (stereo not drawn)
  CDC25B-CDK2 inh: 0.77
  HIV TAR-Tat: 0.2
COc1ccc(OC)c(C2=NOC(C(=O)Nc3cc(Br)ccc3O)C2)c1 (stereo not drawn)
  CDC25B-CDK2 inh: -0.74
  HIV TAR-Tat: 0.75
CCOC(=O)C(C)NC(=O)Nc1ccc2nc(NS(C)(=O)=O)sc2c1 (stereo not drawn)
  CDC25B-CDK2 inh: nt
  HIV TAR-Tat: 0.05
COc1ccc(CNC(=O)Nc2c[nH]c(=O)[nH]c2=O)cc1
  CDC25B-CDK2 inh: nt
  HIV TAR-Tat: 1.77

Following part:
Second line of a record – CDC25B-CDK2 inh	HIV TAR-Tat
> CN(C(=O)c1cccc(Cl)c1)C(c1cccs1)c1c[nH]c2ccccc12 (stereo not drawn)
    0.17	-0.12
> Fc1ccc(-c2nc3cnccn3c2NC2CCCCC2)cc1
    0.46	nt
> CN(CCNC(=O)CC1Oc2ccccc2NC1=O)C1CCCCC1 (stereo not drawn)
    -1.1	-0.05
> O=C(C1CCN(c2ncnc3c2nc2n3CCCCC2)CC1)N1CCCC1
    nt	0.38
> COc1ccc2[nH]c(=O)c(-c3noc(-c4ccc(Cl)cc4)n3)cc2c1
    2.79	0.25
> CCCCC(=O)n1c(=O)oc2cc(C)ccc21
    nt	0.2
